# Source: PubChem BioAssay
# FGF22 binding – FGF22 (human) thermal shift binding; calls only at 9.99 µM; 340,000 tested, 1.5% active; recombinant FGF22 thermal shift, SYPRO orange fluorescence; percent of sucrose octasulfate shift, DMSO zero; Q9HCT0; AID 651658;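 active means melting point raised past a set limit in the mean and every replicate; three in four hits are not shown here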
# Beta2AR agonist – activates human beta-2 adrenergic receptor causing internalization | P07550 | Am2.2-beta2AR cells, FAP receptor internalization, flow cytometry; reference of the scale not given here | response, % (concentration not given with the values) | 340,000 tested, 0.43% active;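 active means response above a set limit, near 3 SD of response in nonfluorescent compounds, cut at about 42% in these data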;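 further: stock transfer was 100 nL into about 11 µL; a reference agonist was the positive control; negative values mostly stem from fluorescent compounds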
# E coli growth – E. coli growth inhibition | OD600 absorbance (concentration not given with the values) | 330,000 tested, 0.21% active | AID 1053175 | Escherichia coli growth, OD600, 23 h; hits give low values;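 active means OD600 absorbance below the run mean of sample wells minus 3.6 SD, in any replicate, cut at about 0.56 in these data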;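 further: stock transfer was 300 nL into about 60 µL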
# ALR inh – inhibitors of human sulfhydryl oxidase ALR | purified ALR, DTT oxidation, H2O2 HRP-luminol luminescence | inhibition, % (no concentration beside the values) | 290,000 tested, 3.8% active | AID 485317;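 active means mean and each replicate at 75% or more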;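 further: stock transfer was 7.5 nL into about 7.5 µL; 0% = neutral wells and 100% = wells with inactivated enzyme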
# LANA-H2B inh – blocks KSHV LANA binding to histone H2A/H2B; Q9QR71; cell-free LANA-H2A/H2B peptide, fluorescence polarization; inhibition, % (test concentration not listed); 320,000 tested, 0.6% active; in the data active means inhibition mostly above about 10%, no sharp cut-off; inactive means mostly below about 6.7%;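 further: stock transfer was 7.5 nL into about 10 µL; 0% = median of vehicle wells and 100% = median of positive control wells; one replicate is shown; the record names a cut of 25% in any replicate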
# Target sequence (Q9QR71 whole entry, looked up): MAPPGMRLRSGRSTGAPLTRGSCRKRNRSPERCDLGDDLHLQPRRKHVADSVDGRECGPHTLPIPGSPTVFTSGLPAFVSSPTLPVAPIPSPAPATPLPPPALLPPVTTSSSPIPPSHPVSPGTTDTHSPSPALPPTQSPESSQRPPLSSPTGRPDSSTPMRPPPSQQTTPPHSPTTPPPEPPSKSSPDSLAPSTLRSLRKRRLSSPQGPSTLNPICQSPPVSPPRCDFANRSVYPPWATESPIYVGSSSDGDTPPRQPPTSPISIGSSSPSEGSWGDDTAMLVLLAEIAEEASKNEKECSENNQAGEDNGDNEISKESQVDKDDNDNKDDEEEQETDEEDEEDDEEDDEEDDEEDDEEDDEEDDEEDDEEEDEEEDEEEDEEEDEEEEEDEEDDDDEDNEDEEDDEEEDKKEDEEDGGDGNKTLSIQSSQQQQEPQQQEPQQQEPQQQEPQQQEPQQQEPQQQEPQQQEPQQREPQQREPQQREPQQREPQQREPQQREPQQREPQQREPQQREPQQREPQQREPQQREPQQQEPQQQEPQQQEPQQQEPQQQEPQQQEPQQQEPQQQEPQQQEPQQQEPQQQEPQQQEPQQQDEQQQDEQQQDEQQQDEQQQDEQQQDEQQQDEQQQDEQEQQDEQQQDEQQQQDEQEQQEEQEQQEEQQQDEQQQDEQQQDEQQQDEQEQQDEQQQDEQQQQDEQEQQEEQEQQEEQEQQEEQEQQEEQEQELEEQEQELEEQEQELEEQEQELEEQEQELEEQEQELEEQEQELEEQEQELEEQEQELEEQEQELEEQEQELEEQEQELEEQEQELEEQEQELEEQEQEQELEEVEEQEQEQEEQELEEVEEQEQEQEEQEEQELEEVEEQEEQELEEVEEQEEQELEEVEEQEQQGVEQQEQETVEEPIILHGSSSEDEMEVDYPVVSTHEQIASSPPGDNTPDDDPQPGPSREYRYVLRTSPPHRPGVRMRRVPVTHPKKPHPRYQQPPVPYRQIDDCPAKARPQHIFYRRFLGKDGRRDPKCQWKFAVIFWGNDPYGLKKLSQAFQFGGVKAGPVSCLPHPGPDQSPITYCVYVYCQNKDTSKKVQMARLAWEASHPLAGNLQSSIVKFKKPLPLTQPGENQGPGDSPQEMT
# UCH37 DUB inh – human UCH37 deubiquitinating enzyme inhibition. purified proteasome/UCH37, Ub-AMC cleavage fluorescence. inhibition, % (test concentration not listed). 330,000 tested, 0.33% active. AID 588478;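 active means mean of two replicates above 20%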;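 further: 0% = compound-free wells with enzyme and 100% = wells lacking proteasome; stock transfer was 100 nL into about 20 µL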
#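 Material: human UCH37 enzyme supplied as purified proteasome complex. Measure: % inhibition of Ub-AMC cleavage fluorescence. Medium: pH 7.4 Tris-HCl (50 mM) with ovalbumin, ATP-MgCl2, DTT. Times: 30 min preincubation with enzyme, 25 min cleavage at room temperature. Detection: AMC fluorescence intensity at 355/460 nm.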
# HNF4A DNA FP – change in binding of human HNF4 alpha to DNA | P41235 | HNF4a-FITC DNA binding, fluorescence polarization, 1 h | activity change, % at 10 µM | 360,000 tested, 0.3% active; in the data active means activity change above about 30%, passing the limit was not always enough;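 further: controls were the assay level and a saturating level of protein; the project sought stronger binding though the title names inhibitors; some compounds called inactive have numbers as strong as hits; positive values seem to mean higher polarization but the record does not say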
# Numbers without * were called inactive; i = inactive; . = not tested or not shown; + = active, no number.
no.	Compound	HNF4A DNA FP	UCH37 DUB inh	LANA-H2B inh	Beta2AR agonist	E coli growth	ALR inh	FGF22 binding
1	CC(C=Cc1ccccc1)=NNS(=O)(=O)c1ccc([N+](=O)[O-])cc1	-3.1	10.1	.	-5.0	0.703	.	i
2	Cc1ccccc1N1CCN(S(=O)(=O)c2nnc(NC(=O)CC(C)C)s2)CC1	0.1	2.8	3.3	3.1	0.728	-19.2	i
3	c1nc2ccc(Cc3ccc4nc[nH]c4c3)cc2[nH]1	0.6	1.6	-0.9	10.7	0.642	-3.4	i
4	O=C(NCCCN1CCCC1=O)Nc1cc(Cl)ccc1Cl	7.0	1.5	1.9	-4.4	0.726	-3.9	i
5	O=C(NCC1CCN(S(=O)(=O)c2ccccc2)CC1)Nc1ccc(F)cc1F	1.4	-0.3	-2.5	-7.5	0.67	-6.2	i
6	CCN(CC(=O)Nc1ccc(S(=O)(=O)N2CCCC2)cc1)Cc1ccccc1	2.7	1.2	-0.6	-2.3	0.689	-2.2	i
7	CCOc1ccc(N(CC(=O)NC2CCCC2)C(=O)CCC(=O)Nc2nc(C)cs2)cc1	2.2	5.9	-1.0	-0.6	0.662	-16.1	i
8	CCN(CC)S(=O)(=O)c1cccc(NC(=O)Nc2cccc(C(F)(F)F)c2)c1	-3.0	0.2	7.5	17.0	0.64	-4.7	.
9	COC(=O)CSc1nnc(CNS(=O)(=O)c2ccc(Cl)cc2)n1C	-0.2	3.3	0.9	5.9	0.721	-4.2	.
10	CN(CC(=O)Nc1ccc(S(=O)(=O)N2CCCC2)cc1)Cc1ccc(Cl)cc1Cl	4.4	2.4	-1.0	-2.7	0.664	-0.1	i
11	CC(=O)Nc1nc(-c2ccc(Br)s2)cs1	-3.3	2.4	2.0	6.5	0.746	-6.9	.
12	CCn1cc(C(=O)NCCCOC)c(=O)c2cc(S(=O)(=O)N(C)C)ccc21	1.2	2.7	-8.6	-1.1	0.654	-13.7	.
13	CCOc1ccc(OCCCC(=O)N2CCN(S(=O)(=O)c3ccc(Cl)cc3)CC2)cc1	3.4	5.0	-2.0	15.4	0.702	-7.3	i
14	CC(=O)Nc1c(-c2ccccc2)nc2cc(C)ccn12	4.9	-10.2	-0.9	0.6	0.668	1.5	i
15	NC(=O)CNC1CC(=O)N(CCc2ccccc2)C1=O (centres undefined)	0.4	2.7	-0.4	4.4	0.648	-5.4	.
16	CCN1C(=O)/C(=C/c2ccc(C)s2)NC1=S	2.0	4.9	-2.2	-2.3	0.716	9.6	.
17	COc1ccc(-c2nnc3sc(-c4ccco4)nn23)cc1OC	-1.2	-3.9	1.2	-0.5	0.692	99.4*	.
18	COc1cc(/C=C/C(=O)O)cc(S(=O)(=O)N2CCc3ccccc32)c1OC	-3.3	3.1	-0.5	-1.8	0.665	9.5	i
19	COc1ccc(Cl)cc1S(=O)(=O)N1CCCC(C(=O)NCC(N)=O)C1 (centres undefined)	-1.6	6.3	1.2	18.8	0.728	-1.5	.
20	Cc1ccc(C(C(=O)NC(C)(C)C)N(Cc2ccco2)C(=O)Cn2nnc(-c3cccs3)n2)cc1 (centres undefined)	-5.1	2.0	-3.8	-1.4	0.692	-3.8	.
21	CCCC1=NN2C(=N)/C(=C\c3cc(C)n(-c4cc(C)cc(C)c4)c3C)C(=O)N=C2S1	2.1	-21.1	1.7	-14.7	0.721	1.0	.
22	Cc1cnc(C(=O)OC(C(=O)c2ccccc2)c2ccccc2)cn1 (centres undefined)	5.0	4.0	.	20.3	0.667	-2.7	i
23	CN(CC(=O)Nc1ccc(C#N)cc1)Cc1ccc(Cl)cc1	-2.8	-1.7	3.1	3.4	0.635	-2.5	.
24	CCOC(=O)N1CCC2CC1c1cc(Cl)ccc12 (centres undefined)	-0.2	.	.	1.6	.	.	i
25	Cn1ccnc1Sc1nc(Nc2cccc(Cl)c2)nc(N2CCOCC2)n1	0.7	6.1	3.9	5.0	0.692	-4.9	.
26	Cc1n[nH]c(=O)c2c(NC(=O)COC(=O)Cc3ccc(Cl)cc3Cl)oc(C)c12	1.1	.	2.8	4.9	.	-10.6	i
27	COCCNC(=O)C(=O)Nc1ccc(Br)cc1	-1.6	2.9	3.1	2.9	0.68	-11.0	.
28	Cc1ccc(NC(=O)C(C)Sc2nnc(C)n2C2CC2)cc1S(=O)(=O)N1CCOCC1 (centres undefined)	2.0	.	7.8	-3.9	.	-5.8	i
29	O=C(Nc1ccccc1)O/N=C/c1ccc(F)cc1	-0.7	.	-3.9	6.2	.	.	+
30	COc1ccc(CN2CCN(Cc3cc4ccccc4o3)CC2CCO)c(F)c1 (centres undefined)	-1.2	-0.3	-1.4	-3.9	0.703	0.1	i
31	CC(Oc1ccccc1)C(=O)N=C1SC2CS(=O)(=O)CC2N1CCc1ccccc1 (centres undefined)	-0.3	0.7	3.3	-3.9	0.693	-2.9	i
32	O=C(c1ccc2ccccc2c1)C1CCCN(C(=O)c2cccnc2)C1 (centres undefined)	-6.4	-19.1	-26.1	1.4	0.716	-10.2	i
33	Cc1cc(C)nc(SCC(=O)N(C)C)n1	-0.6	4.9	7.3	-3.3	0.712	3.3	i
34	O=[N+]([O-])c1ccc(N2CCCC2)cc1N1CCCC1	5.2	8.5	-1.0	.	0.69	64.8	.
35	Cc1c(N=C2N=C(NC(=O)NC(C)(C)C)c3ccccc32)c(=O)n(-c2ccccc2)n1C	2.8	4.5	5.7	-8.1	0.704	20.0	i
36	O=C(NCC(c1ccco1)N1CCCCC1)c1ccc(S(=O)(=O)Nc2ccccc2Cl)cc1 (centres undefined)	4.3	1.4	-3.7	6.1	0.697	-1.3	i
37	COc1ccc(CNC(=S)Nc2ccc(F)c(Cl)c2)cc1	-0.1	0.6	-2.8	-5.4	0.619	-1.3	+
38	COc1ccccc1N1CCN(C(=O)c2ccc(N3CCCCS3(=O)=O)cc2)CC1	0.4	1.4	4.4	1.1	0.678	5.3	i
39	CCOc1ccc(NC(=O)CN(C)C(=O)c2ccccc2OCCOc2ccccc2)cc1OCC	-0.4	-0.2	-1.2	1.2	0.625	-25.9	i
40	Cc1ccc(C(=O)NC(C)c2ccc(C)c(C)c2)s1 (centres undefined)	-2.5	1.3	-2.7	5.4	0.688	-16.5	i
41	C=Cc1ccc(C(=O)N2CCCC(Nc3ccc4c(c3)OCCO4)C2)cc1 (centres undefined)	-1.6	2.1	.	5.3	0.7	.	i
42	C/C(=N\NC(=S)NC(C)C)c1ccco1	-2.0	.	-1.5	3.4	.	11.6	i
43	NC(=O)c1ccc(-n2nnnc2SCC(=O)NC2CCCCC2)cc1	2.9	.	1.9	-5.8	.	-3.0	i
44	CCN(CC)CC(=O)Nc1scc2c1c(=O)oc1ccccc12	0.9	1.9	-8.3	-12.9	0.662	-4.4	i
45	CCc1nnc(NC(=O)CSc2nc3c(C)cccc3[nH]2)s1	1.3	3.7	-2.6	-0.6	0.635	0.8	.
46	CCCCN(CCCC)c1nc(OC)nc(-n2nnc(C(C)=O)c2C)n1	0.7	5.6	1.6	73.5*	0.748	-6.5	.
47	CCOc1ccc2nc(N3CCC(C(=O)N4CCN(c5ccccn5)CC4)CC3)sc2c1	5.6	6.6	-3.3	-7.0	0.753	4.4	.
48	COc1ccc(CNC(=O)CN2CCC(NC(=O)c3ccc(OC)cc3)CC2)cc1	4.6	5.4	.	2.8	0.691	.	i
49	CC(C)(C)Nc1nc(-c2ccc3c(c2)CCN3C(=O)C2CC2)cs1	0.1	1.1	-5.0	-5.0	0.661	-15.4	i
50	O=C1CCC/C1=C/Nc1ccc(Cl)cc1	2.0	6.3	-4.7	6.5	0.713	-1.1	i
51	Cn1c(=O)c2cc(S(=O)(=O)Nc3cccc(F)c3)ccc2n(C)c1=O	-1.3	1.9	1.9	3.7	0.716	0.0	.
52	CCOC(=O)N1CCN(C(=O)c2ccc3c(c2)NC(=O)/C(=C/c2ccccc2)S3)CC1	2.4	-11.9	-4.2	-0.4	0.699	-37.5	i
53	CCOc1ccccc1NC(=O)CN(c1ccc(Cl)cc1)S(C)(=O)=O	-0.2	4.2	2.8	2.4	0.649	-0.2	i
54	O=C(O)/C=C\C(=O)Nc1ccccc1F	2.9	4.1	.	13.1	0.647	.	i
55	O=C(COC(=O)c1cc(Cl)ccc1O)NNC(=O)c1ccc([N+](=O)[O-])cc1	-0.6	-0.6	0.0	3.2	0.681	-3.6	i
56	Cc1ccc(NC(=S)N2CCN(CCN3C(=O)c4cccc5cccc(c45)C3=O)CC2)cc1	1.8	2.6	7.3	1.7	0.633	-6.5	.
57	Cc1onc(-c2c(F)cccc2Cl)c1C(=O)N=C(N)N1CC(C)OC(C)C1 (centres undefined)	1.3	2.1	-0.1	5.6	0.668	3.3	i
58	Cc1ccc(C)c(S(=O)(=O)NC2CCSC2=O)c1 (centres undefined)	-1.8	3.3	.	4.6	0.67	.	i
59	Cc1ccc(C)c(N(CC(=O)NC2CCCC2)C(=O)CCC(=O)Nc2cc(C)on2)c1	-5.2	0.7	-5.1	4.0	0.682	-10.0	.
60	COc1ccccc1NC(=S)NC1CCCCCC1	0.4	-0.6	0.5	-8.1	0.633	0.6	i

# Other structures.
no.	Compound	HNF4A DNA FP	UCH37 DUB inh	LANA-H2B inh	Beta2AR agonist	E coli growth	ALR inh	FGF22 binding
61	CC1=CC2=NC(=O)/C(=C/c3cccn3Cc3ccccc3)C(=N)N2O1	3.6	3.3	-2.3	-3.3	0.708	.	i
62	Cc1ccc([C@H]2C(C(=O)O)=CC[C@@H](c3cccc(C)c3)N2S(=O)(=O)c2ccc(C)cc2)cc1	3.3	-0.6	-363.7	2.5	0.713	9.6	i
63	Cc1cc2nc(-c3ccc(SCC(=O)N4CCN(C(=O)c5ccco5)CC4)nc3)[nH]c2cc1C	-1.5	-93.0	-1.0	16.3	0.75	98.7*	.
64	COc1cccc(OC)c1C(=O)Nc1ccc(Br)c(C(=O)c2ccccc2)c1	-0.1	-1.9	-0.9	0.5	0.739	-2.3	i
65	COc1ccccc1CN1CCCCC1C(=O)O (centres undefined)	2.4	2.4	4.0	-1.7	0.688	-2.6	.
66	CCOC(=O)c1cnc2nc(SCc3ccccc3Cl)[nH]n2c1=O	2.3	-7.4	4.3	-4.0	0.648	32.6	i
67	O=[N+]([O-])c1ccc(OCCOCCOc2ccc([N+](=O)[O-])cc2)cc1	0.1	1.0	6.3	-4.2	0.667	-2.3	.
68	COCCNC(=O)[C@H](C)[C@H]1C[C@]1(C)[C@H](NC(=O)OCc1ccccc1)c1ccccc1	-0.4	1.6	0.9	2.8	.	-6.5	i
69	COc1cc(/C=C2\C=CC(=O)O2)cc(OC)c1	22.2	-9.0	-3.4	4.7	0.638	-1.8	i
70	COc1ccc(S(=O)(=O)Nc2cccc(-c3ccc4nncn4n3)c2)cc1F	-2.6	2.3	-0.8	15.6	0.695	-10.1	i
71	Cc1cc(C)c(S(=O)(=O)NNC(=O)C2CCN(Cc3ccccc3)CC2)c(C)c1	2.8	0.3	-0.5	-4.0	0.716	31.5	.
72	CCCCCn1cnc2sc(-c3ccccc3)cc2c1=O	2.0	4.8	4.7	-2.7	0.73	-3.1	.
73	Cc1ccc(C2=NC3(CCCCC3)N=C2SCC(=O)Nc2ccc3c(c2)OCCO3)cc1	4.4	5.4	1.7	-28.2	0.741	45.2	.
74	O=C(N/N=C/C(Cl)=C/c1ccccc1)c1ccccn1	-4.2	.	0.5	2.9	.	-5.5	i
75	Cc1ccccc1-n1c(SCC(=O)Nc2ccc3c(c2)OCO3)nnc1-c1ccccn1	-0.2	1.0	-9.4	11.2	0.699	-12.4	.

# Not all compounds are listed; rates above refer to the full screens.
